High-throughput results deposited in PubChem BioAssay by National Center for Advancing Translational Sciences (NCATS).
Sfp inh = inhibitors of Bacillus subtilis Sfp phosphopantetheinyl transferase; Q9F4F7; Biochemical Sfp PPTase activity, qHTS; Potency, µM, for inactives: max response, negative = inhibition, usual class: inhibitors; 310,000 compounds, 3.5% hits; active = well fitted inhibition curve with a large enough effect; inconclusive = small, poorly fitted or top-dose-only effect, or another doubt; inactive = no such curve, though single readings can be large or run the other way;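 note: the enzyme is Sfp with the accession as filed and its product quenches rhodamine fluorescence; potency is the fitted concentration of half-maximal effect; 0% = enzyme reaction without inhibitor and -100% = no enzyme wells; top concentration of the series not given in the record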
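Sfp 15 nM + cpd, 15 min RT; start w/ rhodamine-CoA 5 uM, BHQ-2-YbbR 12.5 uM (final); 50 mM Hepes pH 7.6, 10 mM MgCl2, 0.01% NP-40, 0.01% BSA; read 525/598 nm at 0 and 30 min.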
D2 PAM = human D2 receptor positive allosteric modulation; potentiation, % (concentration not given with the values); AID 624464; 360,000 compounds, 0.23% hits; P14416; DiscoveRx D2 beta-arrestin cells, luminescence, 90 min; 100% = 57 uM dopamine signal; active = potentiation of 50% or more; inconclusive = 30% to 50%; inactive = 30% or less;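 note: tested on top of an EC20 dose of dopamine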
Target sequence (P14416 whole entry, looked up): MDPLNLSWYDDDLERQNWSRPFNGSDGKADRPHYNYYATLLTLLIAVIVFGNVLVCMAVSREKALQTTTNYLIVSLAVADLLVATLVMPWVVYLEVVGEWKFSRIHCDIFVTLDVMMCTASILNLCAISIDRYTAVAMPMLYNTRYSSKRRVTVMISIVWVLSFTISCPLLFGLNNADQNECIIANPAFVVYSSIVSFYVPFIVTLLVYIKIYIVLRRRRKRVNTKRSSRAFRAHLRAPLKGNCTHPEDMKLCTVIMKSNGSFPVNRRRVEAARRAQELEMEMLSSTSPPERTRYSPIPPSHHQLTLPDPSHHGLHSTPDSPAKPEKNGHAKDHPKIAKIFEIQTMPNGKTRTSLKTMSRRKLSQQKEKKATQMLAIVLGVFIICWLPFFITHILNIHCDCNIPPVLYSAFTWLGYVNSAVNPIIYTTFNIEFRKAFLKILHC
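PathHunter beta-arrestin assay in DiscoveRx D2 cells. Compounds were added with an EC20 of dopamine (50 nM final) for 90 min at 37 deg C. Luminescence was read 1 h after detection reagent, with 57 uM dopamine as the EC100 control.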
TRPV1 potentiator = human TRPV1 potentiation; Q8NER1; TRPV1-expressing cells, Fluo-8 calcium influx, capsaicin EC20 potentiation; host cell line not named in the record; control for the full effect not named in the record; potentiation, % at 8.33 µM; 320,000 compounds, 0.02% hits; AID 540277; active means potentiation above 80%; inconclusive means 30% to 80%; inactive means below 30%; note: 0% is about no effect
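TRPV1-expressing cells were cultured overnight at 35.5C and loaded with Fluo-8 calcium dye for 40 to 90 min at room temperature. After a 10 s baseline, compound was added and calcium influx was read kinetically for 3 min (ex 480/em 520 nm).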
ClpP mod = qHTS Assay for Activators of ClpP | 340,000 compounds, 1.9% hits | Potency, µM (series often up to 57.5 µM), without a hit: at the highest dose activity change, negative = active | ATP-dependent Clp protease proteolytic subunit (Bacillus subtilis (strain 168)), P80244 | AID 651965, 2013 | purified B. subtilis ClpP, FRET peptide cleavage, 20 min; active = well fitted falling curve with a large enough effect; inconclusive = small, poorly fitted or top-dose-only effect; inactive = no such curve, though single readings can be large or run the other way; note: potency is the fitted concentration of half-maximal effect; the source files actives as falling curves though it sought activators and does not explain the sign; nearly all actives have a fitted effect of over 65% in size; many hits overshoot -100%
Target sequence (P80244 whole entry, looked up): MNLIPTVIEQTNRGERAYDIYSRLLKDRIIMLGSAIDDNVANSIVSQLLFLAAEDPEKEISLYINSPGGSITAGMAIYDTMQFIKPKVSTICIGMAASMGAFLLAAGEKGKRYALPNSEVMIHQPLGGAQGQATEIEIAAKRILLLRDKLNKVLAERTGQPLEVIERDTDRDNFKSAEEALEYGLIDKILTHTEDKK
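Buffer: 100 mM Tris/HCl pH8, 100 mM KCl, 0.05% low protease BSA, 2.5% glycerol, 0.01% Tween-20. ClpP 10 microg/mL final; 20 min RT; delta FRET normalized to ADEP and DMSO controls.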
gsp agonist = agonists of gsp mutant (McCune-Albright syndrome). gsp mutant cells, cAMP HTRF, 30 min; control for the full effect not named in the record. Potency, µM (top dose mostly 76.9 µM), for inactives: top-dose activation (cAMP increase), usual class: activators. 340,000 compounds, 0.13% hits. AID 624287; active = well fitted activation curve with a large enough effect; inconclusive = small, poorly fitted or top-dose-only effect, or another doubt; inactive = no such curve, though single readings can be large or run the other way; cell line not stated here;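 note: phosphodiesterase inhibitor Ro 20-1724 added with compounds to block cAMP breakdown; potency is the fitted concentration of half-maximal effect; nearly all actives have a fitted effect of over 60% in size; about a fifth of the inactives were tested at one dose only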
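Cells in DMEM/10% FBS with G418 were pretreated with compounds in DMSO plus […] (300 uM stock) for 30 min at 37C. cAMP was measured by HTRF (cAMP-d2 plus anti-cAMP antibody-K) after 30 min at room temperature.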
Menin-MLL FL inh = displaces fluorescein MLL peptide from human menin; Fluorescence polarization, fluorescein-MLL peptide displacement from menin; FP activity change, % at 61.4 µM; 290,000 tested, under 10 active; inconclusive = falling polarisation curve, or a change in total fluorescence; inactive = total fluorescence flat and polarisation flat or rising; no compound was filed as active; the % refers to the polarisation; negative = inhibition;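 note: % of control where 0% means no effect; inhibitors lower the polarisation; unlabelled MLL peptide was the positive control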
gsp antagonist = antagonists of gsp mutant (McCune-Albright syndrome); gsp-mutant cells, cAMP HTRF, 30 min; control for the full effect not named in the record; Potency, µM (series often up to 76.9 µM), without a hit: at the highest dose activity change, negative = inhibition, actives largely listed as inhibitors; 340,000 compounds, 0.4% hits; AID 624288; active = falling curve of any shape with a large fitted effect; inconclusive = falling curve, mostly with a smaller effect; inactive = flat or rising curve; cell line not stated here;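 note: intracellular cAMP measured with PDE inhibitor Ro 20-1724 present during compound exposure; potency is the fitted concentration of half-maximal effect; % is set by controls: 0 for no effect and ±100 for the full control effect; nearly all actives have a fitted effect of over 65% in size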
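HTRF cAMP measurement after 30 min RT detection following 30 min, 37C compound treatment alongside […] (added as 300 uM solution) in G418-selected cells seeded at 2000/well and grown 16–24 h.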
* = called active by the depositor; ? = inconclusive; . = no result given; & = joins results of further samples; [ ] = remark or other dose. Compounds as they come (roughly 5.1% active in at least one column).

SMILES | Sfp inh | D2 PAM | TRPV1 potentiator | ClpP mod | gsp agonist | Menin-MLL FL inh | gsp antagonist
Cc1cc(C)c(OCC(O)CNC(C)(C)C)c(C)c1 (stereo not given) | 2% | 1 | 0 | 1.6% | 1% | -6.2 | 12%
CC1CC(C)CN(C(=O)CSC2=Nc3ccccc3C3=NC(Cc4c[nH]c5ccccc45)C(=O)N23)C1 (stereo not given) | -6% | -3 | -2 | 2.7% | -21% | 7.6 | -11%
O=C(Nc1ccc([N+](=O)[O-])cc1)c1nc[nH]c1C(=O)NC1CCCCC1 | 4% | -5 | -4 | 0.3% | -17% | 4.7 | 5%
Cc1ccc(S(=O)(=O)N(C)c2ccc(OCC(=O)N3CCCC(C(F)(F)F)C3)cc2)cc1 (stereo not given) | . | 11 | 5 | -0.5% | 17% | . | 3%
CC1CC=C2C(C#N)=C(N)C(C#N)(C#N)C(c3cccs3)C2C1 (stereo not given) | -18% | -29 | -1 | 1.2% | -35%[inhibitor] | ? | -17%
O=C(CN1CCOCC1)Nc1c(C(=O)C2CC2)oc2ccccc12 | -1% | -6 | 5 | -4.7% | 0% | 2.3 | -19%
COc1ccc(C)cc1NS(=O)(=O)c1ccc(NS(=O)(=O)c2ccc(NC(C)=O)cc2)cc1 | -8% | 7 | 12 | -2.2% | -6% | -1.3 | -21%
CCOc1ccccc1-c1cc(C(=O)N2CCOCC2)c2ccccc2n1 | -13% | -18 | -12 | -9.1% | 19% | . | -10%
N#CCC(=O)N1CCN(Cc2ccc3c(c2)OCO3)CC1 | . | -22 | . | -1.3% | 15% | . | -9%
CCN(CC)CCOC(=O)c1c(C)n(C)c2ccc(OC)cc12 | 4% | -27 | -16 | 0.4% | -44%[inhibitor] | -0.7 | 11%
CC(C)CCNCC1OCc2ccccc2CO1 | 23% | -8 | ? | -1.2% | 6%[15.4 µM] | 2.1 | 1%
CCOC(=O)c1ccc(Nc2cc(C)nc(-c3ccccc3)n2)cc1 | 9% | 12 | -19 | -17% | -10% | -2.0 | -16%
CC1CN(S(=O)(=O)c2ccccc2)CN1C(=O)N1CCOCC1 (stereo not given) | 8% | -3 | 5 | . | 5%[15.4 µM] | -0.4 | -3%
COc1cc(NC(=O)c2c(F)cccc2F)c(Cl)cc1Cl | 16% | 0 | 4 | . | -5%[15.4 µM] | -0.3 | -2%
Cc1ccnc2c1NC(=O)c1cccnc1N2C1CC1 | 25%&14%&14% | -4 | 22&4 | 1.8% | . | 2.4&-3.7&-3.9 | 0%
C=C(C)c1cccc(C(C)(C)NC(=O)Nc2ccc(C(N)=O)cc2)c1 | 9% | -2 | -6 | . | -32%[inhibitor] | 1.0 | 1%
Cc1ccccc1C(=O)c1cccn1CC(=O)NCc1ccc(F)cc1 | 16% | -11 | -9 | -0.5% | -43%[inhibitor] | . | 3%
COc1ccc(CC(=O)Nc2ccccc2Oc2ccccc2)cc1 | -1% | . | -10 | . | . | 0.2 | .
CC(=O)Nc1c(Cl)c(Cl)c2c(c1Cl)Cc1cc(Cl)ccc1-2 | . | 14 | . | 1.3% | -1% | . | 11%
CCOc1ccccc1NC(=S)N1CCN(c2ccc(OC)cc2)CC1 | 11% | -3 | 2 | 1.2% | 2% | 1.6 | -3%
COc1ccc(-n2nnnc2SCC(=O)NC2CCCC2)cc1OC | 17% | -3 | -3 | . | -15% | -5.1 | 4%
COc1cc(C(=O)NNC(=O)/C=C/c2ccco2)cc(OC)c1OC | . | 19 | . | 2.7% | 8%[15.4 µM] | . | 8%
CCc1c(C)sc(NC(=O)CN2CCN(C(=O)c3ccco3)CC2)c1C(=O)OC | -10% | -12 | -15 | -10% | -10% | . | -30%
Cc1ccc(NC(=O)c2cc(S(=O)(=O)NCC3CCCO3)ccc2F)cc1 (stereo not given) | . | -7 | . | -1.4% | 3% | . | .
CCCc1nc2c(C)ccc(C)c2c(N)c1CC | -5% | -8 | 12 | ? | 14% | 2.1 | 5%
O=C(CSc1nnc(-c2cnccn2)n1Cc1ccco1)c1ccc(Cl)cc1 | -76% | -9 | 27 | 1.2% | -14% | 1.3 | -7%
COc1ccc(N2C(=O)C3CC=C(Cl)CC3C2=O)cc1 (stereo not given) | -5% | -2 | 10 | -2.4% | -42%[inhibitor] | 4.4 | 21%
COc1ccc(Cl)cc1NC(=O)CN1CCN(S(=O)(=O)N2CCC(C)CC2)CC1 | 5% | -6 | 23 | . | 11% | -2.8 | -21%
Nc1ccc(S(=O)(=O)c2ccc(NC(=O)c3cccnc3)cc2)cc1 | . | -3 | . | . | 8% | . | -2%
CCOC(=O)c1cc(NCc2cccs2)ccc1N1CCOCC1 | 6% | -2 | -9 | . | 31% | 0.6 | -10%
Cc1nc2cc(Cl)ccc2c(=O)n1Cc1ccncc1 | 15% | -9 | -3 | -1.6% | 0% | -0.4 | 1%
C=CCn1c(SCC(=O)Nc2cc3oc4ccccc4c3cc2OC)nnc1-c1cnccn1 | -17% | 0 | 11 | -1.9% | 1% | -0.2 | 2%
CS(=O)(=O)N1N=C(c2cccs2)CC1c1ccc(Cl)o1 (stereo not given) | -2% | -6 | ? | -2.8% | -28% | 4.1 | 6%
CCn1nc(C)c(C(=O)Nc2cc(Oc3cc(C)cc(C)c3)cc([N+](=O)[O-])c2)c1C | ? | 11 | 1 | -0.9% | -14% | -0.5 | -3%
CCn1cc([N+](=O)[O-])c(C(=O)N2CCOCC2)n1 | 15% | -14 | 0 | 2.1% | -42%[inhibitor] | 2.2 | 12%
CCN(CC)C(=O)c1cc(-c2ccccc2OC)on1 | 5% | -4 | -37 | 25µM* | ? | 5.2 | 4%
O=S(=O)(c1cccs1)N1CCCc2cccc(O)c21 | -29% | 1 | -8 | -1.6% | -15% | -1.2 | -14%
Cc1cc(C)c(C#N)c(N2CCOCC2)n1 | 10% | -9 | -12 | 25µM* | ? | -0.1 | -1%
CCOC(=O)c1ccc(S(=O)(=O)N2CCC(C(=O)OCC)CC2)cc1 | 18% | -16 | 0 | -0.6% | -4% | 0.3 | 2%
COc1ccccc1-c1ccc(=O)n(CC(=O)NCc2ccco2)n1 | 12% | -6 | ? | . | 3% | 0.5 | -1%
O=S(=O)(c1ccc(S(=O)(=O)N2CCN(Cc3ccccc3)CC2)cc1)N1CCOCC1 | 19% | . | 13 | . | . | -5.6 | .
CCc1ccc(N(C(=O)c2csnn2)C(C(=O)NC2CCCCC2)c2ccncc2)cc1 (stereo not given) | 10% | -5 | 1 | . | 15% | . | -2%
Cc1ccccc1NC(=O)CN1C(=O)S/C(=C\c2ccc(-c3cccc(C(=O)O)c3C)o2)C1=O | -30% | -4 | 26 | . | 4%[15.4 µM] | 19 | -2%
CC1(C)CC(=O)C(C=NCCN2CCN(C(=S)Nc3ccccc3)CC2)=C(O)C1 | -5% | -10 | -16 | 0.6% | -31%[inhibitor] | 4.7 | -6%
CCN(CC)C(=O)Cn1cnc2sc(C(=O)NCCCN3CCOCC3)c(C)c2c1=O | 24% | -2 | 4 | . | -5% | -1.9 | 7%
CCN(CC)C(=O)C1=C(C)NC(=S)NC1c1cn(-c2ccccc2)nc1-c1ccc(Cl)cc1 (stereo not given) | 8% | -12 | -11 | -8.3% | -25% | -2.6 | -8%
NC(=O)[C@@H]1CCCCNc2c(F)cc([N+](=O)[O-])cc2C(=O)N[C@@H](CC(=O)O)C(=O)NCC(=O)N1 | 17% | 18 | 21 | 2.0% | . | -1.4 | 9%
CC1C(c2ccccc2)OCCN1C(=S)NC(=O)c1ccccc1 (stereo not given) | . | 7 | . | -1.2% | -13% | . | .
O=C(CN1CCN(C(=O)C2CC2)CC1)Nc1cc(C(F)(F)F)cc(C(F)(F)F)c1 | . | -12 | -8 | -4.4% | -25% | . | 6%
Cn1c(=O)c2c(nc(Br)n2Cc2ccc3ccccc3c2)n(C)c1=O | ? | 7 | 2 | 1.0% | -19% | 0.5 | -23%
Further records:
SMILES | Sfp inh | D2 PAM | TRPV1 potentiator | ClpP mod | gsp agonist | Menin-MLL FL inh | gsp antagonist
CCn1c2ccccc2c2cc(NC(=O)c3ccc(Br)o3)ccc21 | 11µM* | 1 | -13 | -3.2% | -26% | ? | -13%
Cc1cccc(N2C(=O)N3[C@H](c4ccc(Br)cc4)[C@@H]4C(=O)N(C(C)(C)C)C(=O)[C@@H]4[C@]3(C)C2=O)c1 | -9% | -17 | -9 | -0.7% | -31%[inhibitor] | -1.3 | -18%
Cn1c(=O)[nH]c(=O)c2c1nc(SCCCO)n2CCCc1ccccc1 | 13% | -5 | 9 | -1.3% | 14% | -0.4 | -6%
COc1ccc(C2C3C=CCC(c4cccc(-c5ccc(C)cc5)c4)C3C(=O)N2Cc2ccccc2)cc1Cl (stereo not given) | 9%&12% | -16 | 2 | -3.9% | 21% | 6.7&0.2 | 0%
CCN(C(=O)COC(=O)/C=C/c1ccc(F)cc1)C1CCCCC1 | . | -8 | . | . | 29% | . | 4%
Cn1c(Cl)c(C(=O)Nc2ccc(Cl)cc2)c2ccccc21 | 15% | -9 | 6 | -2.6% | 0% | 2.2 | -2%
CS(=O)(=O)c1ccc(C(=O)NCC2(N3CCOCC3)CCCCC2)cc1 | . | -5 | . | . | -35%[inhibitor] | . | -6%
O=C(NCCN1CCOCC1)c1ccncc1 | 12% | -2 | 12 | 1.9% | -18% | 3.9 | 4%
Cn1c(Sc2ccc([N+](=O)[O-])cc2C(F)(F)F)nnc1-c1ccccc1 | 11% | 16 | -3 | 1.3% | 3% | 0.9 | -12%
O=C(CCCc1cccs1)Nc1nc(-c2ccc(F)cc2)cs1 | 6% | 8 | 2 | . | 7% | 5.7 | 7%
Cc1nc2ccccc2c2oc(C(=O)Nc3ccc(C(C)C)cc3)cc12 | -7% | 0 | -39 | -16% | 0% | 2.0 | -21%
O=C(O)c1cn(-c2ccccc2)nc1-c1ccc(F)cc1 | 15% | -4 | -3 | -8.4% | 4% | 8.1 | -18%
Cn1nccc1C(=O)N(CCN1CCCCC1)CC1CCCN(C2CCCC2)C1 (stereo not given) | -1% | -23 | 5 | 2.6% | 0%[15.4 µM] | -7.7 | -1%
Cc1ccc(NC(=O)Cn2ccc(=O)[nH]c2=O)cc1 | 2% | -2 | -8 | . | 7%[15.4 µM] | -1.6 | -13%
Cc1ccc(C(=O)NC(C)c2ccc(-n3ccnc3)cc2)cc1 (stereo not given) | 15% | -4 | -17 | . | 4%[15.4 µM] | 2.3 | 5%
